CtBP-E1A blk – inhibitors of CtBP/E1A interaction; activity change, % (test concentration not listed); AID 651724; AlphaScreen GST-E1A/His-CtBP binding, 1536-well; stronger effect = lower value; control for the full effect not named in the record; 340,000 compounds, 0.49% hits; in the data active means activity change below about -65%; inconclusive means about -30% to -65%; inactive means above about -30%; also: % is scaled to controls: 0 for no effect and ±100 for the full control effect
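GST-E1A and His-tagged CtBP (125 nM each as 5X stock) were preincubated with pin-transferred compound for 2 h at 37 °C in the dark, then glutathione donor and nickel acceptor beads were added for 1 h before AlphaScreen reading.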
D2 potentiator – potentiates the human D2 dopamine receptor allosterically. AID 624464. potentiation, % (concentration not given with the values). 360,000 compounds, 0.23% hits. DiscoveRx D2 beta-arrestin cells, luminescence, 90 min; 100% = 57 uM dopamine signal; active = potentiation of 50% or more; inconclusive = 30% to 50%; inactive = 30% or less;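 also: tested on top of an EC20 dose of dopamine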
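PathHunter beta-arrestin assay in DiscoveRx D2 cells. Compounds were added with an EC20 of dopamine (50 nM final) for 90 min at 37 deg C. Luminescence was read 1 h after detection reagent, with 57 uM dopamine as the EC100 control.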
D2 ag – activates the human D2 dopamine receptor. DiscoveRx PathHunter D2 beta-arrestin, luminescence, 90 min; 100% = 57 uM dopamine signal. activation, % (test concentration not listed). 360,000 compounds, 0.084% hits. AID 624465; in the data active = activation above about 40%; inconclusive = about 15% to 40%; inactive = below about 15%; also: compound concentration not given in the record; the text of the record calls up to 30% inactive
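Agonist mode: compounds alone added to overnight-plated D2 PathHunter cells for 90 min at 37 C, with 57 uM final dopamine (EC100) defining full response. Beta-arrestin recruitment detected by chemiluminescent reagent, read after 1 h at ambient temperature.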
gsp antag – antagonizes gsp, the McCune-Albright syndrome mutation | 340,000 compounds, 0.4% hits | gsp-mutant cells, cAMP HTRF, 30 min; control for the full effect not named in the record | Potency, µM (highest dose often 76.9 µM), without a hit: top-dose activity change, negative = inhibition, most hits filed as inhibitors; active = falling curve of any shape with a large fitted effect; inconclusive = falling curve, mostly with a smaller effect; inactive = flat or rising curve; cell line not stated here;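 also: intracellular cAMP measured with PDE inhibitor Ro 20-1724 present during compound exposure; potency is read from the fitted curve at half-maximal effect; % is scaled to controls: 0 for no effect and ±100 for the full control effect; nearly all actives have a fitted effect of over 65% in size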
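Measurement of cellular cAMP by homogeneous time-resolved fluorescence following a 30 min compound exposure at 37C. The PDE inhibitor […] was present throughout; the assay buffer was DPBS with 0.05% BSA and 0.005% Tween 20.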
Six1-Eya2 inh – Six1/Eya2 interaction inhibition | 360,000 compounds, 0.56% hits | activity change, % (test concentration not listed) | Q15475+O00167 | AlphaScreen GST-Six1/His-Eya2 binding, biochemical; stronger effect = lower value; control for the full effect not named in the record; in the data active = activity change below about -65%; inconclusive = about -30% to -65%; inactive = above about -30%; also: % is scaled to controls: 0 for no effect and ±100 for the full control effect
Target sequence (O00167 whole entry, looked up): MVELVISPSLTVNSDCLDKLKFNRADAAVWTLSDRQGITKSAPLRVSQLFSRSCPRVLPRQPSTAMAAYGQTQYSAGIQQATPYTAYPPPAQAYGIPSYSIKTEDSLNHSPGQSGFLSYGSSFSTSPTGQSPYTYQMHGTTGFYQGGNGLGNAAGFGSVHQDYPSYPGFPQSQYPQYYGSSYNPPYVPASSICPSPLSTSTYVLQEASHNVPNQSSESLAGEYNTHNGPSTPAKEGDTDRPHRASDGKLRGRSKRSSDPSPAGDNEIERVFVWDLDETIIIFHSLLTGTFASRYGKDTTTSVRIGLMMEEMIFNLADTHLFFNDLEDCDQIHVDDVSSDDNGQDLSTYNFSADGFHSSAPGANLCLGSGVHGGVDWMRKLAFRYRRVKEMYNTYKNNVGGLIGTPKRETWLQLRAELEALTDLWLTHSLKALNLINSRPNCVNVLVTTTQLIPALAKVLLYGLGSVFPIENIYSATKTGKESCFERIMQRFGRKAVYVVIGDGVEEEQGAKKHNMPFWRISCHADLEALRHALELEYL
Target sequence (Q15475 whole entry, looked up): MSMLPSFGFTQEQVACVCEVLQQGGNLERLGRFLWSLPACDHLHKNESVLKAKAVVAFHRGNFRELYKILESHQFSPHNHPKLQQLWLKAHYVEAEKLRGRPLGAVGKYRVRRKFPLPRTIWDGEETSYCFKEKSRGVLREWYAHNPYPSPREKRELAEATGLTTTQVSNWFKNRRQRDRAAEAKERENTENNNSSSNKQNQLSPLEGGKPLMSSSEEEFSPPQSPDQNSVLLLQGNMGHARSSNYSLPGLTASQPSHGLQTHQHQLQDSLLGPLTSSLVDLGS
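AlphaScreen luminescence read after one hour at 37 °C in darkness. Pin-transferred compounds met GST-Six1 and His-Eya2 protein (5X stock 250 nM/500 nM) plus glutathione donor and Ni-chelate acceptor beads (5X, 50 ug/mL).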
gsp ag – agonists of gsp mutant (McCune-Albright syndrome) | gsp mutant cells, cAMP HTRF, 30 min; control for the full effect not named in the record | Potency, µM (doses to about 76.9 µM), for inactives: at the highest dose activation (cAMP increase), hits mostly activators | 340,000 compounds, 0.13% hits; active = well fitted activation curve with a large enough effect; inconclusive = small, poorly fitted or top-dose-only effect, or another doubt; inactive = no such curve, though single readings can be large or run the other way; cell line not stated here;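 also: phosphodiesterase inhibitor Ro 20-1724 added with compounds to block cAMP breakdown; potency is read from the fitted curve at half-maximal effect; nearly all actives have a fitted effect of over 60% in size; about a fifth of the inactives were tested at one dose only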
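Cells stably selected in G418 were plated at 2000/well, grown 16-24 hr, then given compounds in DMSO with the PDE inhibitor […] (300 uM solution added) for 30 min at 37C; cAMP was read by HTRF.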
Numbers without * were called inactive; ? = inconclusive; . = not tested or not shown; [ ] = another dose, or the depositor's remark.

The line under a structure holds: CtBP-E1A blk	D2 potentiator	D2 ag	gsp antag	Six1-Eya2 inh	gsp ag
C[C@H](NC(=O)c1nc[nH]c1C(=O)NCc1ccccc1)c1ccccc1
→ 1	-1	-4.3	3%	-11	.
C[C@@]12C(=O)N(c3cccc(Br)c3)C(=O)N1[C@H](c1ccc(Cl)cc1)[C@@H]1C(=O)N(C3CCCCC3)C(=O)[C@@H]12
→ -10	-24	-0.1	-12%	-19	-1%
Cn1c(=O)[nH]c(=O)c2c1nc(SCCN1CCCCC1)n2CCCc1ccccc1
→ 2	-33	-4.6	-9%	-2	2%
COc1ccc(CCNC(=O)C(=O)NCC2OCCN2S(=O)(=O)c2ccc3c(c2)OCCO3)cc1 (stereo not given)
→ -1	2	3.2	-14%	7	-7%
CCOC(=O)N1CCN(C(=O)C2CC(=O)N(c3ccccc3)C2)CC1 (stereo not given)
→ -1	-4	-2.2	8%	8	-19%
COCCNC(=O)C1(C)CCCN(C(=O)c2ccc(C#N)cc2)C1 (stereo not given)
→ -8	-7	-4.0	.	6	.
O=C(COc1ccc(Br)cc1)Nc1ccc(Cc2ccncc2)cc1
→ 1	-17	0.1	-1%	0	?
COC(=O)c1cccc(NC(=O)COC(=O)CSc2nc(C)cc(C)n2)c1
→ 22	-6	-0.5	-3%	0	-47%[inhibitor]
CCc1ccccc1NS(=O)(=O)c1c(C(=O)N2CCCCCC2)c(C)n(C)c1C
→ 1	-8	-2.4	4%	-1	3%
O=C(Nc1cccc2oc(=O)ccc12)c1ccc([N+](=O)[O-])cc1[N+](=O)[O-]
→ -13	5	4.1	-3%	6	-9%
COc1ccc(CCn2c(NCc3ccco3)nc3c2c(=O)[nH]c(=O)n3C)cc1
→ -1	-1	0.6	1%	7	-28%
CCCn1c(=O)n(C)c(=O)c2c(SCC(=O)NCc3ccco3)nc(C3CC3)nc21
→ -20	10	-2.0	-3%	-10	0%
Cc1ccc(S(=O)(=O)NCc2ccc3c(c2)OCO3)cc1C
→ .	-18	-0.5	11%	-1	-35%[inhibitor]
N#C/C(=C\Nc1ccccc1SC(F)(F)F)c1nc(-c2ccc(Cl)cc2)cs1
→ 10	-3	3.0	13%	1	?
CN(C(=O)Cn1c(=O)oc2cc(S(=O)(=O)N3CCCC3)ccc21)C1CCCCC1
→ 0	-8	-0.5	-9%	4	-33%[inhibitor]
Oc1cccc(N2Cc3ccccc3C2)c1
→ .	2	-1.8	1%	-8	6%
COc1ccc(S(=O)(=O)N2C[C@H]3CON(C)[C@H]3C[C@H]2c2cccc(Br)c2)cc1
→ -2	-6	-0.8	5%	-4	.
CC(C)c1ccc(NC(=O)COC(=O)[C@H](CCC(N)=O)NC(=O)c2ccc(F)cc2)cc1
→ 0	23	2.0	-19%	4	0%
CCCCOc1ccc(/C(O)=C2/C(=O)C(=O)N(CCN(C)C)C2c2ccc(O)c(OC)c2)cc1 (stereo not given)
→ 9	-22	1.0	6%	3	-6%
O=C1NC2(NN1c1ccccc1)C1CC3CC(C1)CC2C3 (stereo not given)
→ 6	20	-0.8	6%	1	-37%[inhibitor]
Clc1ccc2nc(CSc3nnc(-c4c[nH]c5ccccc45)o3)cn2c1
→ 2	-6	-1.7	2%	18	11%
Cc1ccc(C(=O)N2CCc3ccccc32)cc1[N+](=O)[O-]
→ 7	0	0.1	0%	6	2%
O=C(NCc1ccco1)/C(=C\c1cccs1)NC(=O)c1ccco1
→ 0	1	0.0	7%	0	0%
Cc1cc(C)cc(N=C2SC(CC(=O)Nc3ccccc3)C(=O)N2CCN2CCOCC2)c1 (stereo not given)
→ 3	-10	-2.4	-3%	-10	-13%[15.4 µM]
COc1ccc(NC(=O)c2sc3nc(C)cc(C)c3c2N)cc1
→ -10	-3	-6.2	0%	1	8%
COc1cc(OC)cc(C(=O)N=c2sc3ccccc3n2C)c1
→ 12	-3	-2.9	1%	4	24%
Cc1cccc(C)c1N(CC(=O)NC1CCCCC1)C(=O)c1csnn1
→ 15	3	-2.4	7%	4	-5%[15.4 µM]
C[C@H]1CN=C(N(C)C)N1CCc1cccc(F)c1
→ -9	-6	-7.6	11%	2	.
CN(C)S(=O)(=O)c1ccc(C(=O)Nc2nnc(-c3ccco3)o2)cc1
→ -14	-7	-6.5	-24%	-6	11%
COc1ccccc1N1CCN(C(=O)c2ccc(NC3=NC4CS(=O)(=O)CC4S3)cc2)CC1 (stereo not given)
→ -16	-2	-3.6	4%	2	?
O=C(NC1CCCc2ccccc21)C1CCCN(S(=O)(=O)c2cnc[nH]2)C1 (stereo not given)
→ -1	-6	-2.7	6%	-2	-56%
O=C(NC1=NCCS1)c1ccc(Cl)c(S(=O)(=O)N2CCc3ccccc32)c1
→ .	-9	-3.4	?	-4	-25%
Cc1ccc(-c2csc(NC(=O)C3=NN(C4CCS(=O)(=O)C4)C(=O)CC3)n2)cc1 (stereo not given)
→ 1	0	-1.3	14%	-3	1%
Cn1c(CN2CCOCC2)nnc1SCC(=O)NC1CCCCC1
→ 4	19	0.5	4%	5	-2%
COc1ccc(OC)c(CNc2ccc([N+](=O)[O-])cc2C)c1
→ -18	-1	-1.3	?	-19	20%[15.4 µM]
CC(C)CN(C(=O)c1ccc(S(=O)(=O)N2CCCC2)cc1)C1CCS(=O)(=O)C1 (stereo not given)
→ -2	4	-1.5	2%	-1	13%[15.4 µM]
Cc1nc(NC(=O)c2ccccc2)sc1C
→ .	1	2.4	-1%	0	-75%[inhibitor]
CN(CCOc1ccc(Cl)cc1)C(=O)c1ccccc1SCC(=O)N1CCCC1
→ .	1	-1.9	-26%	7	-12%
Cc1ccc2oc(Nc3nc(C)cc(C)n3)nc2c1
→ 1	-14	-2.7	-20%	2	28%
COC(=O)c1ccc(C(=O)OC)c(NC(=S)N2CCCCC2)c1
→ 0	7	-2.7	-3%	0	29%
CS(=O)(=O)NNC(=O)CN1C(=O)C2C3C=CC(C3)C2C1=O (stereo not given)
→ 10	-2	-1.4	10%	-4	8%[15.4 µM]
Cc1cccc(N(C)c2cc(C)nc3ncnn23)c1
→ -2	-6	-2.2	-9%	9	-44%[inhibitor]
Cc1ccc(S(=O)(=O)Nc2ccccc2C(=O)OC(C)C(=O)Nc2ccc3ccccc3c2)cc1[N+](=O)[O-] (stereo not given)
→ -9	4	-4.5	-26%	1	5%[15.4 µM]
Cc1occc1C(=O)N/N=C/c1ccc2c(c1)OCO2
→ 7	-8	0.5	3%	-4	4%[15.4 µM]
O=C(CSc1n[nH]c(=O)n1C1CC1)Nc1cc(Cl)ccc1Oc1ccccc1
→ 2	?	6.6	35µM*	-5	-3%

3 structures out of the list, arranged by SMILES length, largest number first:
The line under a structure holds: CtBP-E1A blk	D2 potentiator	D2 ag	gsp antag	Six1-Eya2 inh	gsp ag
Cc1ccc(S(=O)(=O)Nc2ccccc2C(=O)OC(C)C(=O)Nc2ccc3ccccc3c2)cc1[N+](=O)[O-] (stereo not given)
→ -9	4	-4.5	-26%	1	5%[15.4 µM]
CC(C)CN(C(=O)c1ccc(S(=O)(=O)N2CCCC2)cc1)C1CCS(=O)(=O)C1 (stereo not given)
→ -2	4	-1.5	2%	-1	13%[15.4 µM]
O=C(CSc1n[nH]c(=O)n1C1CC1)Nc1cc(Cl)ccc1Oc1ccccc1
→ 2	?	6.6	35µM*	-5	-3%

More compounds:
The line under a structure holds: CtBP-E1A blk	D2 potentiator	D2 ag	gsp antag	Six1-Eya2 inh	gsp ag
COc1ccccc1/C=N/NC(=O)c1cc2c(ccc3ccccc32)o1
→ -22	6	-0.5	-23%	-6	0%
Cc1cc(=O)n2nc(N3CCCC(C(=O)Nc4ccc(C)c(C)c4)C3)sc2n1 (stereo not given)
→ -23	3	-1.0	-9%	-9	-11%
CC(OC(=O)c1ccc([N+](=O)[O-])cc1)C(=O)NCC1CCCCC1 (stereo not given)
→ 14	-18	-2.9	-1%	8	10%[15.4 µM]
Cc1cccc(/C(N)=N/OC(=O)Cc2cccc3ccccc23)c1
→ 8	7	6.3	2%	21	22%[15.4 µM]
C#CCOCCOCCOCCNc1nc(N2CCN(C(=O)CCCCCCCCCCNC(=O)[C@H]([C@@H](C)CC)n3cc(CCCCN=C(N)N)nn3)CC2)nc(N2CCN(C(=O)CCCCCCCCCCNC(=O)[C@H](CO)n3cc(CCCSC)nn3)CC2)n1
→ ?	0	1.3	-7%	-23	.
O=C(CN1C(=O)NC2(CCCC2)C1=O)OCc1ccc(Cl)c(Cl)c1
→ 0	-19	-4.3	2%	35	-40%
CN(C)c1nc(OCCNC(=O)Nc2ccc(Cl)cc2)nc(N(C)C)n1
→ 5	-7	-6.3	-3%	-5	-4%
COc1cc(NC(=S)NCCCN2CCOCC2)c(OC)cc1NC(=O)c1ccco1
→ -8	-6	0.0	1%	0	7%
Cc1cc(C)c(S(=O)(=O)N2CCN(C(=O)c3cccs3)CC2)c(C)c1
→ 6	1	-4.4	-5%	2	-7%
COc1ccccc1N1CCN(C(=O)c2cc(-c3cccc(Cl)c3)on2)CC1
→ 1	-3	-2.6	-1%	3	5%
COc1cc2c(cc1OC)CN(C(=S)Nc1ccc(OC(F)F)cc1)CC2
→ -8	-5	-2.4	-14%	-5	-3%[15.4 µM]
O=C(NCc1ccccc1)c1cccc(NC(=O)C2CCC2)c1
→ 5	-6	-0.7	-2%	6	.
O=C(NCC(c1cccnc1)N1CCN(c2ccccc2)CC1)OCc1ccccc1 (stereo not given)
→ -18	-4	4.5	4%	-4	-11%
COc1nc(-c2ccc(Cl)cc2)ccc1-c1noc(-c2cccs2)n1
→ 7	-7	-2.6	7%	7	6%
COc1ccc(-c2cc(C(=O)NCc3cccnc3)no2)cc1
→ -20	-9	-1.2	-3%	3	0%
O=C(NC1CCCCC1)c1cccc(COCC(F)(F)F)c1
→ 7	-3	-0.7	11%	14	16%
CCC1S/C(=N/N=C/c2ccco2)N(Cc2ccccc2)C1=O (stereo not given)
→ 3	-1	0.4	-3%	-3	23%[15.4 µM]
COc1ccccc1/C=N/NC(=O)c1nnn(-c2nonc2N)c1-c1ccccc1
→ -5	8	-0.8	?	-1	-82%[inhibitor]
COc1ccccc1C(=O)NC(CCSC)C(=O)NCC(c1cccs1)N1CCOCC1 (stereo not given)
→ 17	-13	-5.9	12%	-6	10%
Cc1noc(C)c1S(=O)(=O)Nc1ccc2c(c1)C(=O)N([C@H](C)CO)C[C@H](C)[C@H](CN(C)C(=O)NC(C)C)OCCCC[C@@H](C)O2
→ 5	.	-1.0	.	0	5%
CN(c1cccc(Cl)c1)S(=O)(=O)c1cccc(C(=O)Nc2nc3ccccc3[nH]2)c1
→ -10	10	12	?	-15	0%
COc1cc(Cl)c(C)cc1NC(=O)CN1C(=O)C2CC=CCC2C1=O (stereo not given)
→ -16	0	-3.5	-2%	0	-3%
COC(=O)CCC(=O)Nc1cc(OC)c(OC)cc1Cc1nccc2cc(OC)c(OC)cc12
→ 4	-2	3.9	5%	8	15%
Cc1ccccc1C(=O)NNC(=O)c1ccncc1
→ -3	1	4.8	7%	-5	34%[15.4 µM]

Screens (PubChem)
